Assay outcomes from PubChem.
2A firefly – Primary qHTS Assay for Foot and Mouth Disease Virus Antivirals against NCGC Sytravon and CBC Compound Libraries: Firefly Luciferase Signal; HEK cells with a luciferase reporter of 2A StopGo recoding; Potency, µM (top dose mostly 57.5 µM), for inactives: top-dose signal change, negative = less light; hit rate 0.23% among 120,000; AID 1745856, 2022; active = well fitted falling curve with a large enough effect; inconclusive = small, poorly fitted or top-dose-only effect; inactive = no such curve, though single readings can be large or run the other way; note: nearly all actives have a fitted effect of over 60% in size; overnight with compound
2A Renilla – Primary qHTS Assay for Foot and Mouth Disease Virus Antivirals against NCGC Sytravon and CBC Compound Libraries: Renilla Luciferase Signal; hit rate 0.32% among 120,000; Potency, µM (titrated, usually from 57.5 µM), for inactives: top-dose signal change, negative = less light; HEK cells with a luciferase reporter of 2A StopGo recoding; active means well fitted falling curve with a large enough effect; inconclusive means small, poorly fitted or top-dose-only effect; inactive means no such curve, though single readings can be large or run the other way; note: nearly all actives have a fitted effect of over 55% in size; overnight with compound
The depositor's hits bear a star; ? = inconclusive; [ ] = remark or other dose. % is set by controls: 0 for no effect and ±100 for the full control effect; potency is the fitted concentration of half-maximal effect. Only part of the results is shown; the hit share may differ from the screen's.

SMILES	2A firefly	2A Renilla
Cc1c(C#N)c(N)nc2c3c(sc12)NC(=O)CC3c1ccccc1 (stereo not given)	-5%	11%
Cc1cc(C2CC(=O)OC3=C2C(=O)CC(C)(C)C3)c(C)s1 (stereo not given)	-5%	1%
O=C(O)CCCCCCCCC#CC#CCCc1ccccc1	6%	12%
COC(=O)c1cc2oc3ccccc3c2n1Cc1c(C)cc(C)cc1C	0%	-7%
CCCc1ccc(S(=O)(=O)N2CCN(C(=O)NCC3CN(CC(C)C)CCO3)CC2)cc1 (stereo not given)	-15%	-11%
CC(=O)c1cc2c(cc1NC(=O)c1c(C)nn(-c3ccc(C)cc3)c1-n1cccc1)OCO2	-21%	-4%
Cc1ccccc1C(=O)Nc1c(NC2CCCC2)c2ccccc2oc1=O	2%	4%
CCN(CC)C(=O)COc1ccc(-c2nnc(Nc3ccc(OC)cc3)c3ccccc23)cc1	12%	-28%
Cc1nc(C)c(CCC(=O)Nc2cc(Cl)ccc2Cl)c(=O)[nH]1	10%	6%
Cc1ccc(NC(=O)Cn2c(=O)n(CCCC(=O)NCc3ccc4c(c3)OCO4)c(=O)c3ccccc32)cc1	-14%	-4%
COc1ccccc1NC(=O)c1oc2ccccc2c1NC(=O)COc1cccc(C)c1	1%	2%
CN(C)CCCN1C(=O)CSC1c1ccc(Cl)cc1 (stereo not given)	-23%	-15%
COc1ccc(NC(=O)C(=O)NCCc2ccccc2)cc1OC	2%	4%
COCc1nnc(NC(=O)CCc2ccc(-c3ccc(C)cc3)o2)s1	2%	19%
Cc1ccc(NS(=O)(=O)c2ccc3c(c2)CC(=O)N3)cc1Cl	-8%	11%
Cc1ccc(NC(=O)Cn2nc(C)c3ccccc3c2=O)c(C)c1	-7%	-9%
CC1Cc2ccccc2N1C(=O)COC(=O)c1ccc(-n2cnnn2)cc1 (stereo not given)	-8%	0%
COC(=O)c1cccc2c1-c1ccccc1/C2=N\O	10%	26%
O=c1cc(CN2CCN(S(=O)(=O)c3ccc(Cl)cc3)CC2)c2cc(Cl)c(O)cc2o1	22%	21%
COC(=O)c1sccc1S(=O)(=O)N1CCN(c2ccccc2OC)CC1	7%	42%[activator]
Cc1nn(CC(=O)N(Cc2ccccc2)C2CC2)c(=O)c2ccccc12	14%	38%[activator]
COC(=O)c1c(C)cccc1NCC(=O)NC(=O)NC(C)(C)C	3%	-3%
CC1CCN(C(=O)CSc2n[nH]c(-c3cc(Br)ccc3O)n2)CC1	-2%	?
O=S1(=O)c2c(cccc2N2CCSCC2)Oc2ccccc2CN1Cc1cn(Cc2cccc(F)c2)nn1	1%	161%[activator]

Among those listed so far, 3 contain a furan ring, fused or not:
SMILES	2A firefly	2A Renilla
COC(=O)c1cc2oc3ccccc3c2n1Cc1c(C)cc(C)cc1C	0%	-7%
COc1ccccc1NC(=O)c1oc2ccccc2c1NC(=O)COc1cccc(C)c1	1%	2%
COCc1nnc(NC(=O)CCc2ccc(-c3ccc(C)cc3)o2)s1	2%	19%

Carrying on.
SMILES	2A firefly	2A Renilla
CCN(CC)C(=O)N1CCN(C)CC1	-5%	3%
N#Cc1ccccc1CN1C(=O)c2ccccc2Sc2ccc(C(=O)OCc3ccco3)cc21	31%[activator]	41%[activator]
Cc1ccc(N2C(=O)CSC23C(=O)N(CC(=O)NCCc2ccccc2)c2ccccc23)cc1C (stereo not given)	-18%	5%
O=C(Nc1ccc(F)cc1)C1CCCN(C(=O)Cc2cccc3ccccc23)C1 (stereo not given)	?	?
O=C(COc1ccc(Br)cc1F)OCC(=O)c1ccc[nH]1	-5%	-16%
CCc1c(C)sc2c1CCN(C(=O)Nc1cc(C)ccc1C)C2c1ccc(OC)cc1 (stereo not given)	-9%	16%
CCOc1ccc2nc(N3CCC(C(=O)Nc4c(C)cccc4C)CC3)sc2c1	10%	-11%
CCC(C)NCC#Cc1ccccc1 (stereo not given)	22%	16%
O=[N+]([O-])c1cccc2nc(/C=C/c3cccc(F)c3)ccc12	79%[activator]	-2%
Cc1ccc(C2SCc3cc(C)c(C)cc3CS2)cc1	33%[activator]	7%
Cc1cccn2c(Nc3ccccc3)c(-c3ccc(N4CCOCC4)cc3)nc12	0%	-4%
CC(C)C(NCC(N)=O)c1cccs1 (stereo not given)	-3%	-12%
O=C(NCCc1ccccc1)Nc1c(NC2CCCC2)c2ccccc2oc1=O	0%	5%
Cc1cc(/C=C(/C#N)c2nc3ccccc3n2C)cc(C)c1O	189%[activator]	-16%
O=C(Nc1ccccc1)c1nc[nH]c1C(=O)O	-17%	-15%
COCCNc1nc(NCc2ccccc2OC)c2cnn(C)c2n1	-4%	-6%
CN(C)S(=O)(=O)c1cccc(C(=O)/C=C/c2cc(-c3cccs3)cs2)c1	-5%	-12%
Cc1c(Cl)cccc1NC(=O)N1CCN(Cc2cc(=O)n3nc(-c4ccccc4F)sc3n2)CC1	71%[activator]	5%
Cn1c(=O)c2c(ncn2CC(=O)Nc2nc(-c3cccc4ccccc34)cs2)n(C)c1=O	130%[activator]	-7%
Cc1ccc(S(=O)(=O)c2c(Nc3ccccc3)sc(C(=O)c3ccc4c(c3)OCO4)c2N)cc1	29%	135%[activator]
CCOC(=O)C1CCN([C@H]2CS(=O)(=O)C[C@@H]2S(=O)(=O)c2ccc(F)cc2)CC1	13%	8%
CCC(C)(C)C1CCc2c(sc(NC(=O)C(C)C)c2C#N)C1 (stereo not given)	8%	4%
O=C(Nc1ccc(F)cc1)C1CCCN1c1ncnc2ccccc12 (stereo not given)	?	?
CCn1c(=O)c(=O)n(CC)c2cc(N3CCCCC3)c(NC(=O)c3cccc(F)c3)cc21	-3%	4%

Structures shown so far containing bromine (2):
SMILES	2A firefly	2A Renilla
CC1CCN(C(=O)CSc2n[nH]c(-c3cc(Br)ccc3O)n2)CC1	-2%	?
O=C(COc1ccc(Br)cc1F)OCC(=O)c1ccc[nH]1	-5%	-16%

Other results follow:
SMILES	2A firefly	2A Renilla
CC1(C)CC(=O)C2=C(C1)OC(N)=C(C#N)C2c1cccc(F)c1 (stereo not given)	24%	12%
CCCN(CCC)CCCNC(=O)C1CCC(CNS(=O)(=O)c2ccc(NC(C)=O)cc2)CC1 (stereo not given)	27%	20%
Cc1oc2c(c(C)cc3oc(=O)c(CC(=O)NCCc4ccccc4F)c(C)c32)c1C	-7%	-7%
CCOc1ccc(S(=O)(=O)c2cc3cccc(OCC)c3oc2=O)cc1	-23%	0%
CNc1c(NC(=O)c2cc(OC)ccc2Br)c(=O)oc2ccccc12	44%[activator]	44%[activator]
O=C(NC(NC(=O)c1ccccc1)c1cccc(I)c1F)c1ccccc1	3%	40%[activator]
COc1cc(Cl)c(NS(=O)(=O)c2cc3[nH]c(=O)c(=O)[nH]c3cc2C)c(OC)c1	0%	-6%
COc1ccc(-c2nc3ccccc3o2)cc1NC(=O)Cc1ccc(Cl)cc1	117%[activator]	4%
O=C(CSc1nc2c(sc3ccccc32)c(=O)n1CCCC(=O)NC1CCCC1)Nc1ccc(F)cc1	-16%	-10%
Cc1nc2nc(SCC(=O)c3ccc(Cl)cc3)[nH]c2cc1Br	146%[activator]	-4%
O=S(=O)(c1ccc(Cl)cc1)c1nc(-c2ccco2)oc1SCc1ccccc1F	-5%	233%[activator]
CCOC(=O)c1c(NC(=O)CCCOc2ccccc2C)sc2c1CCC(C)C2 (stereo not given)	-14%	-2%

Sorted by molar mass (ascending): some entries from above
SMILES	2A firefly	2A Renilla
CC1(C)CC(=O)C2=C(C1)OC(N)=C(C#N)C2c1cccc(F)c1 (stereo not given)	24%	12%
COc1ccc(-c2nc3ccccc3o2)cc1NC(=O)Cc1ccc(Cl)cc1	117%[activator]	4%
CCOC(=O)c1c(NC(=O)CCCOc2ccccc2C)sc2c1CCC(C)C2 (stereo not given)	-14%	-2%
Cc1oc2c(c(C)cc3oc(=O)c(CC(=O)NCCc4ccccc4F)c(C)c32)c1C	-7%	-7%
COc1cc(Cl)c(NS(=O)(=O)c2cc3[nH]c(=O)c(=O)[nH]c3cc2C)c(OC)c1	0%	-6%
O=S(=O)(c1ccc(Cl)cc1)c1nc(-c2ccco2)oc1SCc1ccccc1F	-5%	233%[activator]
O=C(NC(NC(=O)c1ccccc1)c1cccc(I)c1F)c1ccccc1	3%	40%[activator]

(list continues)
SMILES	2A firefly	2A Renilla
COc1ccc(NC(=O)Cn2c(=O)n(CC(=O)NCCc3ccccc3)c(=O)c3ccccc32)cc1	-13%	-10%
N#Cc1ccc(-c2csc(-c3ccsc3)n2)cc1	57%[activator]	9%
CCc1ccccc1-n1c(N)c(C(=O)OC)sc1=S	15%	4%
O=C(CSc1nnc2ccccn12)c1ccc(F)c(F)c1	0%	-12%
O=C(Cc1ccc2c(c1)CCCC2)NC1CCCCCC1	0%	19%
Cc1ccc(N(CC(=O)NCc2ccc(Cl)cc2)S(=O)(=O)N(C)C)cc1	-11%	11%
Cc1cc(N2CCCC2)nc(N2CCN(C(=O)Nc3ccccc3)CC2)n1	22%	-14%
O=C(CN1C(=O)S/C(=C\c2ccc(F)cc2)C1=O)Nc1ccc2oc(=O)ccc2c1	-14%	-16%
O=C(COc1cccc(Cl)c1)NC1CCCN(c2ncccn2)C1 (stereo not given)	16%	-2%
CS(=O)(=O)c1ccc(Cl)c(NC(=O)CCNC(=O)c2ccco2)c1	5%	-10%
Cc1ccc(OCC(=O)Nc2ccc(S(=O)(=O)N(Cc3ccccc3)c3ccccc3)cc2)cc1	-10%	0%
CCC(C)c1ccc(-c2nc3ccccc3c(C(=O)O)c2C)cc1 (stereo not given)	-111%	?
O=C(Nc1ccccc1)C1CCCN(S(=O)(=O)Cc2ccccc2Cl)C1 (stereo not given)	-2%	-2%
CCOc1ccccc1N(C)C(=O)NCc1noc2ccccc12	41%	?
O=C(Nc1cccc(C(=O)N2CCN(c3cccc(Cl)c3)CC2)c1)c1nsc2ccccc12	85%[activator]	-8%
Cc1cc(C)cc(NC(=O)c2cc(S(=O)(=O)NCCC3=CCCCC3)ccc2F)c1	-14%	71%[activator]
Cn1nc(C(=O)NCc2cnn(-c3ccccc3)c2)c2ccccc2c1=O	-12%	6%
COCCCNC(=O)c1ccc2c(c1)nc1n2CCCCC1	58%[activator]	14%
Cc1cc(C)c(O)c(-c2n[nH]c3c2C(c2cccc(O)c2)N(Cc2cccnc2)C3=O)c1 (stereo not given)	0%	52%[activator]
CCc1ccccc1NC(=O)Nc1cn(CC(C)C)c(=O)c2ccccc12	-14%	-13%
CN1CCN(C(=O)c2cc(=O)c3cc(Cl)cc(Cl)c3o2)CC1	11%	5%
Cc1ccc(OCC(=O)Nc2cc(-c3nc4ccccc4o3)ccc2C)cc1	0%	3%
COc1cccc(C(=O)/C(=C/c2ccco2)c2nc3ccccc3o2)c1	193%[activator]	28%
Cc1ccc2c(C)c(CCC(=O)Nc3ccccc3Br)c(=O)oc2c1	30%[activator]	19%
C=CCOc1ccc2c(=O)c(Oc3cc(C)cc(C)c3)coc2c1	-10%	-11%
CCc1ccc(NC(=O)N2CCc3cc(S(=O)(=O)N4CCC(C)CC4)ccc32)cc1	-1%	10%
O=C1CCCc2cc(S(=O)(=O)N3CCCC(C(=O)NCc4ccccc4)C3)ccc2N1 (stereo not given)	28%	31%[activator]
Cc1ccccc1CNC(=O)CN1C(=O)C2CCCCN2c2ccc(C(=O)N3CCCC3)cc21 (stereo not given)	40%[activator]	103%[activator]
CCc1cccc(NC(=O)CSc2ncc3c(n2)-c2cc(Cl)ccc2N(C)S3(=O)=O)c1	-22%	-23%
Cc1ccc(C)c(OC(=O)CSc2nnc(-c3ccc4c(c3)OCO4)o2)c1	0%	5%
O=C(CCc1ccccc1)NCCc1csc(-c2cccc(F)c2)n1	12%	36%[activator]
O=C(NC(c1ccccc1)c1ccccc1)C1CC1c1ccccc1 (stereo not given)	1%	12%
CCOc1ccc(CCNC(=O)CSc2nc3ccccc3nc2Cc2ccc(C)cc2)cc1OCC	-9%	-7%
COC(=O)CCOc1ccc(S(=O)(=O)Nc2ccc(F)c(F)c2)cc1	-4%	97%[activator]
CCOC(=O)c1cc(-c2ccccc2)n(-c2cccc(C(=O)Nc3cccc(F)c3)c2)c1C	9%	-9%
CC(C)c1ccc(S(=O)(=O)N2CCN(CCS(=O)(=O)CCC(N)=O)CC2)cc1	1%	-6%
CC(C)(C)c1ccc(CN(Cc2ccccc2)C(=S)Nc2ccc(Br)cc2)cc1	21%	31%[activator]
O=C(c1cc(=O)c2cc(Cl)ccc2o1)N(Cc1ccccc1)Cc1ccco1	-3%	74%[activator]
Cc1cc(OCC(=O)N2CCN(Cc3nc(N)c4ccccc4n3)CC2)ccc1C(C)C	42%[activator]	-13%
Cc1ccccc1-n1c(SCCOc2ccccc2Cl)nnc1-c1ccc(C(C)(C)C)cc1	-10%	-11%
O=C(c1cc2ccccc2oc1=O)N1Cc2ccccc2C(c2ccccc2)C1 (stereo not given)	-6%	57%[activator]
CCCCn1cnc2c1c(=O)[nH]c(=O)n2CC(C)C	-4%	-9%
COc1ccc(OC(C)C(=O)NCc2nc(-c3ccc(Cl)cc3)no2)cc1 (stereo not given)	?	?
COC(=O)c1cnc(N2CCN(c3ccc(F)cc3)CC2)c2ccccc12	-1%	-7%
CCOc1ccc(C(=O)CSc2nnc3ccccn23)cc1	128%[activator]	15%
O=C(CCCSc1nc2ccccc2s1)NCc1ccccc1F	64%[activator]	-6%[1.06 µM]
CC1CCc2nn(CC(=O)Nc3ccc(Cl)cc3)c(=O)cc2C1 (stereo not given)	-16%	-13%
CN1CCN(S(=O)(=O)c2ccc(N3CCN(c4cccc(Cl)c4)CC3)nc2)CC1	2%	-3%
CCC(C)NC(=O)c1sc2nc3n(c(=O)c2c1C)CCC3 (stereo not given)	2%	-10%
CCN(CC)C(=O)CN1CCN(c2nc(C)c3c(c2C#N)CC(C)(C)OC3)CC1	-14%	-13%
